HSD17B inhib = qHTS Assay for Inhibitors of HSD17B4, hydroxysteroid (17-beta) dehydrogenase 4 | Potency, µM (doses to about 57.1 µM), for inactives: top-dose activity change, negative = inhibition, most hits filed as inhibitors | 3-hydroxyacyl-CoA dehydrogenase type-2 (Homo sapiens), Q99714 | 7.6% of 75,000 active | recombinant HSD17B10, NADH fluorescence kinetic; many of its hits are not listed in these tables; active = well fitted inhibition curve with a large enough effect; inconclusive = small, poorly fitted or top-dose-only effect; inactive = no such curve, though single readings can be large or run the other way;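 note: the protocol describes HADH2 (HSD17B10) and not the HSD17B4 of the title; nearly all actives have a fitted effect of over 70% in size; most hits overshoot -100% by far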
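20 nM HADH2, pH 9.0 Tris/Tween; cpd preinc 15 min RT; start w/ 1 mM NAD+ + 90 uM b-hydroxybutyryl-CoA; kinetic fluor ex360/em450 q30s x 4 min; delta last-first.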
* marks the source's active call; other numbers are inactive results; u = inconclusive; [ ] = another dose, or the depositor's remark. % is set by controls: 0 for no effect and ±100 for the full control effect; potency is the fitted concentration of half-maximal effect. These rows are one share of the data; the hit share may differ from the screen's.

SMILES	HSD17B inhib
O=C(Nc1ccccc1)N1CCCC2(CCN(C(=O)c3csnn3)CC2)C1	1%
COc1ccc(-c2ccc(-c3noc(C4CCCCC4)n3)c(OC)n2)cc1	32µM*
O=C(O)c1ccccc1C(=O)N1CCN(c2cccc(Cl)c2)CC1	10%
O=C(CS(=O)(=O)Cc1ccccc1)NCc1ccc2c(c1)OCO2	3%
COc1ccc(C)cc1NC(=O)CN(c1ccc(F)cc1)S(C)(=O)=O	-2%
COc1ccc(-n2nnnc2SCC(=O)N2CCCC2)cc1OC	7%
CCN(CC)C(=O)CSC(=Nc1ccccc1F)NC#N	u
Cc1ccc(OCC(O)Cn2c(=N)n(CCN3CCOCC3)c3ccccc32)cc1 (stereo unspecified)	6%
CN(Cc1ccccc1)C(=O)CCNC(=O)Cn1cnc2ccccc2c1=O	-1%
CN(C(=O)c1ccc(NC(=O)c2cnccn2)cc1)C1CCCCC1	11%
CCCC(=O)Nc1cc(-c2cn3cccnc3n2)ccc1OC	32µM*
CCCCOc1ccc(N2C(=O)CC(N(O)c3ccccc3)C2=O)cc1 (stereo unspecified)	1%
O=C(Cn1c(=O)sc2ccccc21)NCc1ccco1	-2%
O=C(c1ccccc1)n1ccc2ccccc21	-5%
CCN1C(=O)c2cccc3c(NC(=O)C(C)(C)C)ccc1c23	2%
CCC(C)[C@H](NC(=O)NCc1ccccc1)C(=O)O (stereo partly specified)	7%
CS(=O)(=O)N1CCN(c2ccccc2NC(=O)Cc2ccccc2)CC1	6%
CC(OC(=O)C1CC=CCC1C(N)=O)C(Cl)=C(Cl)Cl (stereo unspecified)	0%
O=C(O)CCN1C(=S)CSC1=S	-4%[11.4 µM]
O=C(NCCN1CCCC1)c1cc(-c2ccncc2)nc2ccc(S(=O)(=O)N3CCOCC3)cc12	12%
C=CCN1C(=O)CSc2ccc(C(=O)OCC)cc21	3%
C/C(=N\NC(=O)c1ccncc1)c1ccc2ccccc2c1O	-4%[11.4 µM]
Cn1c(=O)c2nnn(/N=C(\c3ccccc3)C3CC3)c2n(C)c1=O	5%
COC(=O)c1ccccc1NC(=O)Cn1c(SC)c(F)cnc1=O	5%
Cc1c(Br)cc(C(=O)OC2CCN(C)CC2)c(C)c1C	-1%
COC(=O)CN1C(=O)C(O)(CC(=O)c2cccc(Br)c2)c2ccccc21 (stereo unspecified)	8%
Cc1noc(/C=C/N(C)C)c1S(=O)(=O)N1CCc2ccccc21	-13%
COc1cccc(-c2nc(CS(=O)(=O)CC(=O)N3CCN(c4ccccn4)CC3)c(C)o2)c1	-11%
C=CCn1c(SCC(=O)NC2CCCC2)nc2scc(-c3ccco3)c2c1=O	u
CC1CCCN(C(=O)Nc2cccc(NC(=O)N3CCCC(C)C3C)c2)C1C (stereo unspecified)	3%

Next section; it opens with the two that closed the last part.
SMILES	HSD17B inhib
C=CCn1c(SCC(=O)NC2CCCC2)nc2scc(-c3ccco3)c2c1=O	u
CC1CCCN(C(=O)Nc2cccc(NC(=O)N3CCCC(C)C3C)c2)C1C (stereo unspecified)	3%
O=C(CSc1nnc([C@@H]2CCCN2)o1)c1ccc(Cl)cc1	9%
COc1ccc(S(=O)(=O)N2CCCC2C(=O)Nc2ccc(O)cc2)cc1 (stereo unspecified)	-4%
CCOc1ccc(C(=O)NC2CCN(S(C)(=O)=O)CC2)cc1	2%
Clc1ccc(-n2cnnn2)cc1	4%
c1cncc(CNc2ncnc3ccc(-c4ccoc4)cc23)c1	25µM*
O=C1CC(c2ccc3c(c2)OCO3)c2cc3c(cc2N1)OCO3 (stereo unspecified)	-13%
COc1ccccc1N(C(=O)c1snc(C(N)=O)c1N)C(C(=O)NCCC(C)C)c1ccco1 (stereo unspecified)	u
COC(=O)c1cc(NC(=O)c2ccc(Cn3cc(Cl)cn3)o2)cc(C(=O)OC)c1	-21%
COc1ccc(-c2cc3c(=O)n(CC(=O)NC4CCN(Cc5ccccc5)CC4)ncn3n2)cc1	0%
Cn1c(=O)c2[nH]c(NCC3CCCO3)nc2n(-c2ccccc2)c1=O (stereo unspecified)	55%[activator]
CC1(C)N=C(c2cccc(F)c2)C(=O)N1	-14%
O=c1oc2cc(OCc3nn[nH]n3)ccc2c2c1CCCC2	25µM*
CCCn1c(=S)[nH]c2cc(C(=O)N3CCN(c4ccccc4OC)CC3)ccc2c1=O	0%
CC12CN3CC(C)(CN(C1)C3c1ccccc1Cl)C2O (stereo unspecified)	13%
Cc1ccc(-n2cc(-c3ccccc3)[nH]c2=O)cc1F	1%
O=c1[nH]c(=O)n(Cc2ccccc2)c2c1CCC2	4%
CCN1C(=O)CC(N2CCN(c3ccc(C(=O)c4ccccc4)cc3)CC2)C1=O (stereo unspecified)	-20%
CCc1c(C(=O)NCCc2ccc(OC)c(OC)c2)[nH]c(C)c1C(C)=O	17%
COC(=O)c1ccc(C(NC(=O)OCc2ccccc2)/C(=C/[C@@H](C)C(=O)N[C@@H](CO)Cc2ccccc2)c2cccnc2)cc1 (stereo partly specified)	8%
CCOC(=O)C(Sc1ncn[nH]1)c1ccccc1 (stereo unspecified)	4%
CCCCCn1c(SCCCC)nc2c1c(=O)[nH]c(=O)n2C	-15%
COc1c(C)cccc1C(=O)Nc1ccc(CN2CCOCC2)cc1	3%
Cc1ccc(SCc2cc(=O)[nH]c(N3CCOCC3)n2)cc1	-3%
c1ccc(CN2CCN(CCN3CCn4c3nc3ccccc34)CC2)cc1	-5%
Cn1c(=O)n(CC(=O)O)c(=O)c2c1nc1n2CCS1	2%
Cc1ccc2nc(SCCC#N)nc(C)c2c1	-13%
C=CCn1c(SCn2nnc3ccccc3c2=O)nnc1-c1ccc(Br)cc1	9%
CC(=O)c1ccc(C2C=CC(O)C(CO)O2)cc1 (stereo unspecified)	4µM*
COc1cc2nc(-c3ccc(Br)o3)oc(=O)c2cc1OC	u
CC1(C)CC(NC(=O)CCc2ccccc2)CC(C)(C)N1	4%
N[C@H](Cc1cccc(-c2ccccc2CP(=O)(O)O)c1)C(=O)O	7%
COc1ccc(C)cc1NC(=O)CSc1nnnn1Cc1ccccc1	1%
COc1cc2c(O)c3c(c(-c4ccc5c(c4)OCO5)c2cc1OC)C(=O)OC3	-22%
CN(C)S(=O)(=O)Nc1ccc(Br)cc1F	7%
COc1ccccc1CNc1cc(-c2cccc(NS(C)(=O)=O)c2)ncn1	u
Cn1c(=O)oc2cc(S(=O)(=O)NCCC(=O)Nc3ccc4c(c3)OCCO4)ccc21	-18%
COc1ccc(S(=O)(=O)N(C)C2CCS(=O)(=O)C2)cc1OC (stereo unspecified)	4%
CC1(C)CC(=O)C(/C=N/n2cnc3ccccc3c2=O)=C(O)C1	-2%
Cc1cccc(OCC(O)Cn2c(NCc3cccnc3)nc3c2c(=O)[nH]c(=O)n3C)c1 (stereo unspecified)	5%
COCC(C)n1c(C)cc(C(=O)COC(=O)c2ccc3ncsc3c2)c1C (stereo unspecified)	-8%
O=C(CCS(=O)(=O)c1cccc2nsnc12)N1CCN(C(=O)c2ccco2)CC1	2%
Cc1cc2cc3c(cc2nc1SCC(=O)N1CCN(C(=O)c2ccco2)CC1)OCO3	-14%
Cc1ccccc1C(=O)N1CCC(C(=O)Nc2ccc(S(=O)(=O)N3CCCC3)cc2)CC1	6%
CC1CCCCN1C(=O)CSc1nnc(-c2ccco2)n1CC1CCCO1 (stereo unspecified)	-2%
CS(=O)(=O)N1CCN(c2ccccc2NC(=O)c2ccc(Cl)cc2)CC1	0%
Cc1cc(C)nc(SCc2nnc(SCC(=O)Nc3ccccc3C)n2Cc2ccco2)n1	-10%
CCCC(=O)c1ccc(N2CCN(C(=O)c3ccccc3)CC2)c(F)c1	-7%
CCOC(=O)c1c(C)oc2ccc(O)c(CN(C)C)c12	4%
COc1ccc(OCCC(=O)NCc2ccccc2)cc1	4%
O=C(O)C1C2C=CC3(CN(Cc4ccccn4)C(=O)C13)O2 (stereo unspecified)	8%
O=C(Cn1ncc2c(=O)oc3ccccc3c21)NCCC1=CCCCC1	2%
COCCNC(=O)c1c(N)n(CCCn2ccnc2)c2nc3ccccc3nc12	1%
O=C1CC(c2ccccc2)CN1S(=O)(=O)c1ccccc1 (stereo unspecified)	1%
CCOc1cc(-c2noc(CCCC(N)=O)n2)cc(Br)c1OC	8%
Cc1nc2cncnc2n(C2CC2)c1=O	-23%
CC(=O)N1CCC2(CC1)CN(Cc1ccccc1)C2	5%
CCOC(=O)C1CCCN(Cc2nc(N)nc(Nc3ccccc3OC)n2)C1 (stereo unspecified)	-1%
CCOC(=O)Cc1csc(SCC(=O)/C(C#N)=C(\C)N)n1	3%
O=C1C=C(N(CCO)CCO)C2(CCCCC2)O1	-2%
Cc1cc(C(=O)Nc2nc3ccc(S(C)(=O)=O)cc3s2)c(C)o1	-24%

Following part.
SMILES	HSD17B inhib
Cc1ccc(S(=O)(=O)n2nc(-c3ccc(Cl)cc3)nc2NCc2ccco2)cc1	-7%
S=C1NC=NC2N=CNC12 (stereo unspecified)	u
COc1cccc(Nc2ncc3nc(C)c(=O)n(C[C@H]4CCCO4)c3n2)c1	4%
CCOc1ccc(-n2c(SC(C)C(=O)OC)nc3c(c2=O)SCC3)cc1 (stereo unspecified)	-1%
CC1CCc2sc3nc(N4CCN(CCO)CC4)n4ncnc4c3c2C1 (stereo unspecified)	5%
O=C(COC(=O)CSCC(=O)N1CCCCC1)Nc1ccc(Cl)cc1	-1%
Nc1nc2n[nH]nc2c(=O)[nH]1	-8%[25.6 µM]
O=C1CC(c2ccc(S(=O)(=O)N3CCN(c4ccccc4)CC3)cc2)CN1 (stereo unspecified)	9%
COc1ccc(CCN(C)CCN2C(=O)c3ccccc3C2=O)cc1OC	0%
O=C(c1nn2c(C(F)(F)F)cc(-c3ccccc3)nc2c1Cl)N1CCOCC1	-2%
CCN1C(=O)c2cccc3c(S(=O)(=O)Nc4c(C)n(C)n(-c5ccccc5)c4=O)ccc1c23	10%
Cc1cc(C)nc(N2CCN(c3nc(C)cc(C)n3)CC2)n1	-1%
CCn1c(SCC(=O)N2CCc3ccccc32)nc2c(c1=O)SC(C)C2 (stereo unspecified)	-12%
COC(=O)[C@H](CC(C)C)NC(=O)Nc1ccc2c(c1)OCCO2	-1%
O=C(CCSc1nc(-c2ccco2)cc(C(F)(F)F)n1)N1CCCc2ccccc21	-21%
Nc1ccc(C(=O)c2ccccc2C(=O)O)cc1Cl	-6%
O=C(Nc1ccc2c(c1)oc1ccccc12)N1CCOCC1	-26%
O=C(CN1C(=O)C2CC=C(Cl)CC2C1=O)N1CCOCC1 (stereo unspecified)	3%
CCC(=O)Nc1ccc(Cl)c(NC(=O)c2ccc(Br)o2)c1	-13%
CCOC(=O)/C=C1\NC(C)(C)Cc2cc(OC)c(O)cc21	2%
CCCc1ccc(Oc2cn[nH]c2-c2ccc(O)c(C)c2O)cc1	4%
Cc1oc(-c2ccc3c(c2)OCCO3)cc1C(=O)NC(CCC(=O)O)C(=O)O (stereo unspecified)	-25%
O=C(COC(=O)c1ccc(S(=O)(=O)N2CCOCC2)cc1)NC1CCCC1	5%
COc1cc(NC(=O)C2C3C=CC(C3)C2C(=O)O)c(OC)cc1Cl (stereo unspecified)	6%
CCn1cc(C(=O)NCC2CCCO2)c(=O)c2cc(S(=O)(=O)N3CCCCCC3)ccc21 (stereo unspecified)	-7%
Cn1c(=O)[nH]c(=O)c2c1nc(OC(=O)c1ccccc1)n2CC(O)COc1ccccc1 (stereo unspecified)	4%
COc1cccc(NC(=O)NC2(C(F)(F)F)Oc3ccccc3O2)c1	25µM*
O=C(CN1CCN(Cc2ccccc2)CC1)NCC1COc2ccccc2O1 (stereo unspecified)	-2%
CCCCN(C)C(=O)C1CCN(Cc2ccccn2)CC1	6%
Cc1ccc2cc(CN(Cc3cccs3)Cc3nnnn3C(C)(C)C)c3nnnn3c2c1	7%

Molecules listed so far containing an aryl thioether with sulfur outside any ring:
SMILES	HSD17B inhib
COc1ccc(-n2nnnc2SCC(=O)N2CCCC2)cc1OC	7%
COC(=O)c1ccccc1NC(=O)Cn1c(SC)c(F)cnc1=O	5%
C=CCn1c(SCC(=O)NC2CCCC2)nc2scc(-c3ccco3)c2c1=O	u
O=C(CSc1nnc([C@@H]2CCCN2)o1)c1ccc(Cl)cc1	9%
CCOC(=O)C(Sc1ncn[nH]1)c1ccccc1 (stereo unspecified)	4%
CCCCCn1c(SCCCC)nc2c1c(=O)[nH]c(=O)n2C	-15%
Cc1ccc(SCc2cc(=O)[nH]c(N3CCOCC3)n2)cc1	-3%
Cc1ccc2nc(SCCC#N)nc(C)c2c1	-13%
C=CCn1c(SCn2nnc3ccccc3c2=O)nnc1-c1ccc(Br)cc1	9%
COc1ccc(C)cc1NC(=O)CSc1nnnn1Cc1ccccc1	1%
Cc1cc2cc3c(cc2nc1SCC(=O)N1CCN(C(=O)c2ccco2)CC1)OCO3	-14%
CC1CCCCN1C(=O)CSc1nnc(-c2ccco2)n1CC1CCCO1 (stereo unspecified)	-2%
Cc1cc(C)nc(SCc2nnc(SCC(=O)Nc3ccccc3C)n2Cc2ccco2)n1	-10%
CCOC(=O)Cc1csc(SCC(=O)/C(C#N)=C(\C)N)n1	3%
CCOc1ccc(-n2c(SC(C)C(=O)OC)nc3c(c2=O)SCC3)cc1 (stereo unspecified)	-1%
CCn1c(SCC(=O)N2CCc3ccccc32)nc2c(c1=O)SC(C)C2 (stereo unspecified)	-12%
O=C(CCSc1nc(-c2ccco2)cc(C(F)(F)F)n1)N1CCCc2ccccc21	-21%
